Yeast UUG start: modulators of yeast start codon fidelity, primary screen, whole organism, S. cerevisiae, single point, plate reader | S. cerevisiae UUG-firefly luciferase reporter, luminescence/redox ratio | activity score, % at 18.7 µM | hit rate 0.13% among 350,000;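 active = replicate mean at a twofold rise or more, about +100% in these data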;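 also: firefly luciferase made from a UUG start codon reports start codon fidelity; reporter light over untreated wells divided by growth signal over untreated wells; some hits fall short of that in this replicate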
Env fusion inh: inhibitors of HIV-1 Env-driven cell-cell fusion, primary screen, HeLa-JRFL effector, CEM21 target cells, luciferase; inhibition, % at 12.3 µM; hit rate 1.1% among 360,000;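 active = mean replicate inhibition score of at least 50 and every replicate individually at or above 50; inconclusive = only one of the two criteria met; inactive = mean below 50 and not all replicates reaching 50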;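 also: 0% = plate neutral controls and 100% = maraviroc near 300 nM; one replicate is shown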
* hit, by the source's call; ? = inconclusive; [ ] = remark or other dose.

The first six records, to show the layout:
SMILES	Yeast UUG start	Env fusion inh
CC(C)NC(=O)N(C)C[C@H]1Oc2cc(C#Cc3cccc(F)c3)ccc2S(=O)(=O)N([C@H](C)CO)C[C@@H]1C	8	13[16.7 µM]
COc1ccc(CN(C)C[C@@H]2OCCCC[C@H](C)Oc3ccc(NC(=O)c4ccccc4)cc3C(=O)N([C@@H](C)CO)C[C@H]2C)cc1	23	-3[16.7 µM]
C[C@@H]1CN([C@@H](C)CO)C(=O)c2cc(C#CC3CC3)cnc2O[C@H]1CN(C)S(C)(=O)=O	-2	-3[16.7 µM]
Cc1noc(C)c1S(=O)(=O)Nc1cccc2c1O[C@@H](CN(C)S(=O)(=O)c1cccs1)[C@@H](C)CN([C@@H](C)CO)C2=O	-1	13[16.7 µM]
Cc1noc(C)c1NC(=O)N(C)C[C@@H]1Oc2c(NC(=O)NC3CCCCC3)cccc2C(=O)N([C@@H](C)CO)C[C@H]1C	11	2[16.7 µM]
COc1ccc(S(=O)(=O)N(C)C[C@H]2Oc3cc(C#CC4CCCC4)ccc3S(=O)(=O)N([C@H](C)CO)C[C@H]2C)cc1	10	11[16.7 µM]

The list itself (from the top)
SMILES	Yeast UUG start	Env fusion inh
CC(C)NC(=O)N(C)C[C@H]1Oc2cc(C#Cc3cccc(F)c3)ccc2S(=O)(=O)N([C@H](C)CO)C[C@@H]1C	8	13[16.7 µM]
COc1ccc(CN(C)C[C@@H]2OCCCC[C@H](C)Oc3ccc(NC(=O)c4ccccc4)cc3C(=O)N([C@@H](C)CO)C[C@H]2C)cc1	23	-3[16.7 µM]
C[C@@H]1CN([C@@H](C)CO)C(=O)c2cc(C#CC3CC3)cnc2O[C@H]1CN(C)S(C)(=O)=O	-2	-3[16.7 µM]
Cc1noc(C)c1S(=O)(=O)Nc1cccc2c1O[C@@H](CN(C)S(=O)(=O)c1cccs1)[C@@H](C)CN([C@@H](C)CO)C2=O	-1	13[16.7 µM]
Cc1noc(C)c1NC(=O)N(C)C[C@@H]1Oc2c(NC(=O)NC3CCCCC3)cccc2C(=O)N([C@@H](C)CO)C[C@H]1C	11	2[16.7 µM]
COc1ccc(S(=O)(=O)N(C)C[C@H]2Oc3cc(C#CC4CCCC4)ccc3S(=O)(=O)N([C@H](C)CO)C[C@H]2C)cc1	10	11[16.7 µM]
COC(=O)C[C@H]1C=C[C@@H](NS(=O)(=O)c2ccccc2F)[C@H](CO)O1	-9	1[16.7 µM]
C[C@@H]1CN([C@H](C)CO)C(=O)c2cc(NS(=O)(=O)c3cccs3)ccc2O[C@@H](C)CCCCO[C@@H]1CN(C)Cc1ccncc1	0	-6[16.7 µM]
Cc1noc(C)c1S(=O)(=O)N(C)C[C@@H]1Oc2ccc(NC(=O)Nc3ccc(F)cc3)cc2CC(=O)N([C@H](C)CO)C[C@H]1C	17	-5[16.7 µM]
COc1ccc(NC(=O)Nc2cccc3c2O[C@@H](CN(C)C(=O)Nc2ccccc2)[C@H](C)CN([C@@H](C)CO)C3=O)cc1	12	-5[16.7 µM]
C[C@H]1CN([C@@H](C)CO)C(=O)Cc2cc(NS(=O)(=O)c3ccccc3)ccc2O[C@@H]1CN(C)Cc1ccc(-c2ccccc2)cc1	8	-44[16.7 µM]
O=C(C[C@@H]1C=C[C@@H](NC(=O)CCN2CCCCC2)[C@H](CO)O1)NCc1ccc(Cl)c(Cl)c1	-1	1[16.7 µM]
CC(C)NC(=O)NCC[C@H]1CC[C@H](NC(=O)CN(C)C)[C@H](CO)O1	27	-12[16.7 µM]
C[C@H]1CCCCO[C@H](CN(C)C(=O)C2CCCCC2)[C@@H](C)CN([C@@H](C)CO)C(=O)c2cc(NC(=O)c3ccccc3)ccc2O1	10	-46[16.7 µM]
C[C@@H]1CN([C@@H](C)CO)C(=O)c2cccc(NS(=O)(=O)c3ccc(Cl)cc3)c2O[C@@H]1CN(C)C(=O)Nc1cccc2ccccc12	2	-112[16.7 µM]

2 neighbouring compounds out of the list so far, quoted:
SMILES	Yeast UUG start	Env fusion inh
C[C@H]1CCCCO[C@H](CN(C)C(=O)C2CCCCC2)[C@@H](C)CN([C@@H](C)CO)C(=O)c2cc(NC(=O)c3ccccc3)ccc2O1	10	-46[16.7 µM]
C[C@@H]1CN([C@@H](C)CO)C(=O)c2cccc(NS(=O)(=O)c3ccc(Cl)cc3)c2O[C@@H]1CN(C)C(=O)Nc1cccc2ccccc12	2	-112[16.7 µM]

(listing goes on)
SMILES	Yeast UUG start	Env fusion inh
C[C@H]1CN([C@@H](C)CO)C(=O)c2cccc(NS(C)(=O)=O)c2O[C@H]1CN(C)S(C)(=O)=O	-20	-19[16.7 µM]
C[C@@H](O)C#Cc1ccc2c(c1)O[C@H](CN(C)C(=O)CN(C)C)[C@@H](C)CN([C@@H](C)CO)S2(=O)=O	1	-14[16.7 µM]
C[C@@H]1CN([C@H](C)CO)C(=O)c2cc(NC(=O)Nc3ccc4c(c3)OCO4)ccc2O[C@H]1CN(C)CC1CCCCC1	9	11[16.7 µM]
Cc1ccc(S(=O)(=O)N(C)C[C@@H]2Oc3ncc(C#CC4(O)CCCC4)cc3C(=O)N([C@H](C)CO)C[C@@H]2C)cc1	16	3[16.7 µM]
COc1ccc(NC(=O)N(C)C[C@H]2Oc3c(cccc3N(C)C)C(=O)N([C@@H](C)CO)C[C@@H]2C)cc1	0	-7[16.7 µM]
CCC(=O)N[C@H]1CC[C@@H](CC(=O)OC)O[C@@H]1CO	-2	0[16.7 µM]
Cc1noc(C)c1S(=O)(=O)N(C)C[C@@H]1Oc2ccc(NC(=O)Cn3cnnn3)cc2CC(=O)N([C@H](C)CO)C[C@H]1C	-1	1[16.7 µM]
C[C@H](CO)N1C[C@H](C)[C@H](CN(C)C)Oc2cc(C#Cc3cccnc3)ccc2S1(=O)=O	-9	-5[16.7 µM]
COc1ccc(S(=O)(=O)N(C)C[C@@H]2Oc3cc(-c4ccccc4OC)ccc3S(=O)(=O)N([C@@H](C)CO)C[C@@H]2C)cc1	4	0[16.7 µM]
COc1ccc(NC(=O)Nc2ccc3c(c2)C(=O)N([C@@H](C)CO)C[C@H](C)[C@H](CN(C)Cc2ccc(C(=O)O)cc2)OCCCC[C@H](C)O3)cc1	13	27[16.7 µM]
Cc1noc(C)c1S(=O)(=O)N(C)C[C@H]1Oc2ccc(NC(=O)Cc3ccccc3)cc2CC(=O)N([C@@H](C)CO)C[C@@H]1C	3	-2[16.7 µM]
Cc1noc(C)c1NC(=O)N[C@H]1CC[C@H](CCNC(=O)C2CCCCC2)O[C@@H]1CO	-3	-19[16.7 µM]
C[C@@H]1CN([C@H](C)CO)C(=O)c2cc(NC(=O)c3ccncc3)ccc2O[C@H]1CN(C)Cc1ccc(Oc2ccccc2)cc1	-8	-5[16.7 µM]
C[C@@H]1CCCCO[C@H](CN(C)S(=O)(=O)c2cn(C)cn2)[C@H](C)CN([C@@H](C)CO)C(=O)c2cc(NC(=O)c3ccncc3)ccc2O1	-6	-3[16.7 µM]
C[C@H]1CN([C@@H](C)CO)C(=O)CCCn2cc(nn2)CO[C@@H]1CN(C)Cc1cccc(C(F)(F)F)c1	-7	-6[16.7 µM]
C[C@@H]1CN([C@@H](C)CO)S(=O)(=O)c2ccc(C#Cc3cccc(F)c3)cc2O[C@H]1CN(C)S(=O)(=O)c1ccccc1F	-1	40[16.7 µM]
C[C@@H]1CN([C@@H](C)CO)C(=O)c2cc(C#Cc3ccccc3F)cnc2O[C@@H]1CN(C)C(=O)Cc1cccnc1	153*	1[16.7 µM]
COc1ccc(NC(=O)N(C)C[C@@H]2Oc3ccc(NC(=O)CCC(F)(F)F)cc3CC(=O)N([C@@H](C)CO)C[C@H]2C)cc1	8	-18[16.7 µM]
C[C@@H]1CN([C@H](C)CO)C(=O)c2cc(/C=C/c3ccccc3)cnc2O[C@@H]1CN(C)C(=O)c1ccc2c(c1)OCO2	2	-17[16.7 µM]
O=C(NCC[C@@H]1CC[C@H](NC(=O)C2CCOCC2)[C@H](CO)O1)c1ccc(F)cc1	-7	0[16.7 µM]
O=C(C[C@H]1C[C@H]2c3cc(NC(=O)Cc4ccncc4)ccc3O[C@H]2[C@@H](CO)O1)NCc1cccnc1	-9	10[16.7 µM]
C[C@@H]1CN([C@@H](C)CO)C(=O)c2cc(C3=CCCC3)cnc2O[C@H]1CN(C)Cc1ccccn1	-37	-13[16.7 µM]
CC(=O)N(C)C[C@H]1Oc2ncc(-c3ccccc3C)cc2C(=O)N([C@@H](C)CO)C[C@@H]1C	-11	-2[16.7 µM]
C[C@@H]1CCCCO[C@H](CN(C)C(=O)Nc2ccc3c(c2)OCO3)[C@@H](C)CN([C@H](C)CO)C(=O)c2cc(NC(=O)NC3CCCCC3)ccc2O1	-9	4[16.7 µM]
C[C@@H]1CCCCO[C@H](CN(C)S(=O)(=O)c2ccccc2)[C@H](C)CN([C@H](C)CO)C(=O)c2cc(N(C)C)ccc2O1	84	-29[16.7 µM]
COc1ccc(S(=O)(=O)N(C)C[C@H]2Oc3c(NC(=O)NC(C)C)cccc3C(=O)N([C@@H](C)CO)C[C@H]2C)cc1	-5	-38[16.7 µM]
C[C@@H]1CN([C@H](C)CO)C(=O)c2cccc(NC(=O)C3CC3)c2O[C@@H]1CN(C)C(=O)Nc1ccc2c(c1)OCO2	26	-13[16.7 µM]
Cc1ccc(S(=O)(=O)Nc2ccc3c(c2)C(=O)N([C@H](C)CO)C[C@H](C)[C@@H](CN(C)C(=O)Nc2c(C)noc2C)OCCCC[C@H](C)O3)cc1	-7	-10[16.7 µM]
C[C@H](CO)N1C[C@H](C)[C@H](CN(C)CC2CCCCC2)Oc2c(NC(=O)NC3CCCCC3)cccc2C1=O	0	-32[16.7 µM]
CN1C(=O)c2cc(NS(=O)(=O)c3ccc(Cl)cc3)ccc2OC[C@@H]2O[C@@H](CC(=O)N3CCc4ccccc4C3)CC[C@H]21	14	-10[16.7 µM]
C[C@H](CO)N1C[C@H](C)[C@H](CN(C)CC2CC2)Oc2ccc(NC(=O)C3CCCCC3)cc2C1=O	-9	6[16.7 µM]
C[C@@H]1CCCCO[C@H](CN(C)C(=O)c2ccccc2)[C@@H](C)CN([C@@H](C)CO)C(=O)c2cc(NC(=O)Nc3ccc(C(F)(F)F)cc3)ccc2O1	-12	?
CCS(=O)(=O)Nc1ccc2c(c1)C(=O)N(C)[C@H]1CC[C@@H](CC(=O)NC)O[C@@H]1CO2	-6	1[16.7 µM]
CCCNC(=O)N(C)C[C@@H]1Oc2cc(C#CCN(C)C)ccc2S(=O)(=O)N([C@H](C)CO)C[C@@H]1C	1	-11[16.7 µM]
Cc1noc(C)c1S(=O)(=O)N(C)C[C@@H]1OCCCC[C@H](C)Oc2ccc(NC(=O)C3CCCCC3)cc2C(=O)N([C@@H](C)CO)C[C@H]1C	1	-1[16.7 µM]
C[C@@H]1CN([C@H](C)CO)C(=O)Cc2cc(NC(=O)C3CC3)ccc2O[C@H]1CN(C)S(=O)(=O)c1ccc(F)cc1	-2	-7[16.7 µM]
COCC(=O)N(C)C[C@@H]1Oc2ncc(C#CCC3CCCC3)cc2C(=O)N([C@H](C)CO)C[C@H]1C	23	3[16.7 µM]
Cc1cc(C(=O)Nc2cccc3c2O[C@@H](CN(C)CC2CC2)[C@@H](C)CN([C@@H](C)CO)C3=O)n(C)n1	-14	-6[16.7 µM]
C[C@@H]1CN([C@@H](C)CO)C(=O)c2cccc(NC(=O)Nc3ccccc3)c2O[C@@H]1CN(C)Cc1ccc(C(F)(F)F)cc1	9	-11[16.7 µM]
O=C(N[C@@H]1CC[C@H](CCNS(=O)(=O)c2ccc(Cl)cc2)O[C@@H]1CO)c1cccc(F)c1	1	-6[16.7 µM]
C[C@H](CO)N1C[C@H](C)[C@@H](CN(C)C(=O)Nc2ccc3c(c2)OCO3)Oc2ccc(NS(=O)(=O)c3cn(C)cn3)cc2CC1=O	-10	1[16.7 µM]
CC(C)NC(=O)N(C)C[C@H]1OCCCC[C@@H](C)Oc2ccc(NC(=O)Nc3ccc4c(c3)OCO4)cc2C(=O)N([C@H](C)CO)C[C@@H]1C	1	-5[16.7 µM]
CO[C@H]1CN(C)C(=O)c2ccc(NC(=O)C3CC3)cc2OC[C@@H](C)N(C(=O)C2CCCCC2)C[C@@H]1C	18	14[16.7 µM]
C/C=C/c1ccc2c(c1)O[C@H](CN(C)C(=O)c1cccc(F)c1)[C@@H](C)CN([C@@H](C)CO)S2(=O)=O	4	12[16.7 µM]
O=C(C[C@H]1C=C[C@@H](NC(=O)c2cnccn2)[C@@H](CO)O1)NCc1ccccc1F	1	-27[16.7 µM]
C[C@@H]1CN([C@@H](C)CO)C(=O)Cc2cc(NC(=O)Cc3cn(C)c4ccccc34)ccc2O[C@@H]1CN(C)S(=O)(=O)c1ccc(F)cc1	-10	-10[16.7 µM]
C[C@@H]1CN([C@H](C)CO)S(=O)(=O)c2ccc(-c3cccc(C(=O)N(C)C)c3)cc2O[C@H]1CN(C)C(=O)Cc1ccccn1	-5	0[16.7 µM]
COc1ccc(S(=O)(=O)Nc2ccc3c(c2)C(=O)N([C@@H](C)CO)C[C@@H](C)[C@H](CN(C)C(=O)NC2CCCCC2)OCCCC[C@H](C)O3)cc1	1	-360[16.7 µM]
Cc1noc(C)c1NC(=O)Nc1ccc2c(c1)C(=O)N([C@@H](C)CO)C[C@@H](C)[C@H](CN(C)C(=O)Nc1ccc(F)cc1)OCCCC[C@@H](C)O2	7	-11[16.7 µM]
C[C@H](CO)N1C[C@H](C)[C@H](CN(C)C(=O)CN(C)C)Oc2ncc(-c3ccc(F)cc3)cc2C1=O	13	-9[16.7 µM]

Assay outcomes as filed in PubChem.

Only part of the results is shown; count on the stated rates, not on these rows.
